High-throughput results deposited in PubChem by National Center for Advancing Translational Sciences (NCATS).
CtBP-E1A inh – inhibitors of CtBP/E1A interaction; AlphaScreen GST-E1A/His-CtBP binding, 1536-well; hits give low values; control for the full effect not named in the record; activity change, % (test concentration not listed); actives 0.49% (n = 340,000); AID 651724; in the data active means activity change below about -65%; inconclusive means about -30% to -65%; inactive means above about -30%; note: % is set by controls: 0 for no effect and ±100 for the full control effect; compound concentration not given in the record
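Protein mix (5X: 125 nM each GST-E1A, His-CtBP) was incubated with pinned compound 2 h at 37 deg C in dark, in 50 mM Tris pH 8.0 buffer with 300 mM NaCl. Glutathione donor and nickel acceptor beads followed; AlphaScreen signal read after 1 h.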
D2 agonist – activates the human D2 dopamine receptor. DiscoveRx PathHunter D2 beta-arrestin, luminescence, 90 min; 100% = 57 uM dopamine signal. activation, % (no concentration beside the values). actives 0.084% (n = 360,000); in the data active = activation above about 40%; inconclusive = about 15% to 40%; inactive = below about 15%; note: compound concentration not given in the record; the text of the record calls up to 30% inactive
Target sequence (P14416 whole entry, looked up): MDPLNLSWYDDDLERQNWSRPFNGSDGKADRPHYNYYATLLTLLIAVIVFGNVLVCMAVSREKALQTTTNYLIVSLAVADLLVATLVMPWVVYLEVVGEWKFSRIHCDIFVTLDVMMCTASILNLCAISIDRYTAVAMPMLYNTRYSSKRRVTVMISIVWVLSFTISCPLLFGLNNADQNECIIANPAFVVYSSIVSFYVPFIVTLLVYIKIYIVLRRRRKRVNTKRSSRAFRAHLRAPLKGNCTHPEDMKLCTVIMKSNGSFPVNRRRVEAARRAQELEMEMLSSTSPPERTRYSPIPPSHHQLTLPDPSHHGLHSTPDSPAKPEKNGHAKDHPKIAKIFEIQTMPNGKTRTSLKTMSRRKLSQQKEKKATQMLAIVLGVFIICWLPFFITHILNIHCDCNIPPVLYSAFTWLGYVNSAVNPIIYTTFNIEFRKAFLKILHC
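Agonist mode: compounds alone added to overnight-plated D2 PathHunter cells for 90 min at 37 C, with 57 uM final dopamine (EC100) defining full response. Beta-arrestin recruitment detected by chemiluminescent reagent, read after 1 h at ambient temperature.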
TRPML1 agonist – human mucolipin-1 channel agonism | actives 0.12% (n = 410,000) | AID 624414 | Q9GZU1 | TRPML1-expressing cells, Ca2+ dye fluorescence, FDSS; host cell line not named in the record; reference of the full effect not given here | activation, % (concentration not given with the values); in the data active = activation above about 50%; inconclusive = about 30% to 50%; inactive = below about 30%; note: 0% is about no effect; the text of the record puts the active cut at 80%
Target sequence (Q9GZU1 whole entry, looked up): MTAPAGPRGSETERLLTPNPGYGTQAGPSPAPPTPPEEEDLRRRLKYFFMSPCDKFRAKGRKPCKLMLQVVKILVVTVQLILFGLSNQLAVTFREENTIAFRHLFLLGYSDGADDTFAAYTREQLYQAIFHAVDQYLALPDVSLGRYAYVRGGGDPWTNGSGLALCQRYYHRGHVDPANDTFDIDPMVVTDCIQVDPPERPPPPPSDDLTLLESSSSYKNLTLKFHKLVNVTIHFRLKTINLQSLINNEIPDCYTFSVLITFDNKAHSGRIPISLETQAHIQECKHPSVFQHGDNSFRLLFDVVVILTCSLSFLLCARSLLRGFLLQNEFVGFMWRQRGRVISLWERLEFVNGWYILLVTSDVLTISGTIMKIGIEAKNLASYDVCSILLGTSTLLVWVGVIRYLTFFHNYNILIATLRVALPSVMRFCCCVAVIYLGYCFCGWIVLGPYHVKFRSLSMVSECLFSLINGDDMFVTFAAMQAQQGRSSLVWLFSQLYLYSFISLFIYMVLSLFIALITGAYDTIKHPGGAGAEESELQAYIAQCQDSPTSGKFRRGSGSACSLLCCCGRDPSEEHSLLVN
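Tetracycline-induced TRPML1-DL cells are seeded and incubated overnight before loading with a no-wash Ca2+ dye and quencher. Agonist activity is taken from the 110 s fluorescence read following compound pin-transfer on an FDSS, before EC80 54-4 challenge.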
TRPML1 blocker – human mucolipin-1 channel inhibition; TRPML1-inducible cells, Ca2+ dye fluorescence, FDSS; hits give low values; inhibition of EC80 agonist-evoked calcium signal; actives 0.02% (n = 390,000); Q9GZU1; activity change, negative = inhibition, % (test concentration not listed); AID 624415; in the data active means activity change below about -50%; inconclusive means about -30% to -50%; inactive means above about -30%;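 note: stimulus is agonist 54-4 at its EC80 concentration; % is set by controls: 0 for no effect and ±100 for the full control effect; compound concentration not given in the record; the text of the record puts the active cut at -80%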
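Tet-induced TRPML1-DL cells loaded with Ca8 no-wash calcium dye were read kinetically on FDSS. Compound addition was followed by EC80 agonist 54-4 (4 uM final); inhibition was read over 110 s.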
Six1-Eya2 inh – inhibitors of human Six1/Eya2 interaction; AlphaScreen GST-Six1/His-Eya2 binding, biochemical; hits give low values; control for the full effect not named in the record; activity change, % (no concentration beside the values); actives 0.56% (n = 360,000); AID 651725; in the data active = activity change below about -65%; inconclusive = about -30% to -65%; inactive = above about -30%; note: % is set by controls: 0 for no effect and ±100 for the full control effect; compound concentration not given in the record
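Six1/Eya2 binding was read as AlphaScreen signal after compounds were pinned into GST-Six1 plus His-tagged Eya2 (5X stock 250/500 nM) in pH 8.0 Tris/NaCl/TCEP buffer, beads added, then incubated 1 h, 37 C, dark.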
PINK1 modulator – PINK1 expression modulation; PINK1 immunofluorescence, high-content cytometry, 24 h; Potency, µM (top dose mostly 76.6 µM), for inactives: at the top dose activation (PINK1 increase), most hits filed as activators; actives 0.2% (n = 410,000); AID 624263; active = well fitted activation curve with a large enough effect; inconclusive = small, poorly fitted or top-dose-only effect; inactive = flat fitted curve, though single readings scatter; cell line not stated here;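 note: potency is the fitted concentration of half-maximal effect; % of control where 0% means no effect; nearly all actives have a fitted effect of over 65% in size; a mitochondrial uncoupler was the plate control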
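Decision-based qHTS: stable cells, 24 h exposure to five compound concentrations, CCCP as control. Fixed cells stained for PINK1 plus nuclear, mitochondrial and cell markers, cytometer read.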
Numbers without * were called inactive; ? = inconclusive; nt = not tested or not shown; & = joins results of further samples; [ ] = dose if it differs, or a comment.

SMILES	CtBP-E1A inh	D2 agonist	TRPML1 agonist	TRPML1 blocker	Six1-Eya2 inh	PINK1 modulator
O=C(CCN1C(=O)c2ccccc2Sc2ncccc21)Nc1ccc(F)cc1F	nt	nt	-0.3	4	nt	-0.9%
CCOc1ccc(-n2c(C)cc(/C=N/N(C)C)c2C)cc1	-23	-2.7	0.3	-11	-16	18%
CCOC(=O)c1c(N)n(-c2ccc(C)c(C)c2)c2nc3ccccc3nc12	nt	nt	1.2	20	nt	-1.1%
COc1ccc(CCn2c(SCC(=O)Nc3cc(C)on3)nc3ccccc3c2=O)cc1OC	2	-4.9	-0.1	-7	6	12%
COc1cccc(-n2c(C)cc(/C=C3\C(=N)N4N=C(CC(=O)N5CCOCC5)SC4=NC3=O)c2C)c1	-14	-4.1	-0.5	-7	-14	-0.4%
CN1CCN(c2oc(-c3ccco3)nc2S(=O)(=O)c2ccccc2)CC1	-1	-2.5	-0.9	21	-2	-1.4%
O=C(COC(=O)c1cc([N+](=O)[O-])ccc1N1CCOCC1)c1ccccc1	-1	-2.3	0.5	2	-7	5.7%
CC(=O)c1cccc(N(CC(=O)NC2CCCC2)C(=O)c2ccc(C)s2)c1	-13	0.9	-0.3	-13	-15	-1.6%
Clc1cccc(CNc2ncnc3c2nc2n3CCCC2)c1	nt	nt	1.5	8	nt	1.3%
O=C(Nc1ccc(C(=O)N2CCN(c3ccc(F)cc3)CC2)cc1)C1=CSCCO1	-6	-0.3	0.4	?	-5	1.7%
N=c1ncn(CC(O)CO)c2nc(N3CCOCC3)[nH]c12 (stereo not given)	0	-4.1	-0.6	-5	0	-1.1%
Cc1ccc(S(=O)(=O)N2CCN(CC(O)c3ccccc3)CC2)cc1C (stereo not given)	-2	-2.5	-0.6	-1	0	0.7%
O=C(NC(=S)N1CC=CCC1)c1ccccc1	-12	-4.7	-0.4	18	2	-0.5%
CCOc1ccc(N2CC(C(=O)NCc3cccc(C)c3)CC2=O)cc1 (stereo not given)	5	-0.9	0.1	-10	1	-1.3%
Cc1ccc(C(=O)N2CC(C)CC(C)C2)cc1NC1=NC2CS(=O)(=O)CC2S1 (stereo not given)	0	-4.3	0.2	16	4	0.5%
C/C(N)=C(/C#N)C(=O)COC(=O)c1cc(C)n(-c2ccc(F)cc2)c1C	-12&-25	4.5&-2.1	-0.7&0.9	15&9	-24&-13	4.0%&3.4%
CCN(CC)c1ccc(S(=O)(=O)N2CCCCC2)cc1NC(=O)C1=COCCO1	-3	-2.1	3.1	20	-1	-4.9%
C1=C(CCNc2ncnc3nc[nH]c23)CCCC1	-1	-1.2	-1.0	1	-8	1.6%
O=C(c1cc2c(s1)CCCC2)N1CCN(S(=O)(=O)c2ccccc2C(F)(F)F)CC1	-2	5.4	3.6	10	-5	1.6%
O=C(Nc1ccc(OCc2cc(=O)n3ccsc3n2)cc1)c1ccc(F)cc1	nt	nt	-0.3	-10	nt	2.7%
CC1(C(=O)NS(=O)(=O)c2cccc(F)c2)CCN1C(=O)c1cccc2ccccc12 (stereo not given)	5	-2.2	-0.9	nt	2	0.2%
CCN1C(=O)[C@H]2[C@@H](c3ccc(-c4cccc(Cl)c4)cc3)N[C@@](C)(C(=O)OC)[C@H]2C1=O	-2	2.4	0.3	-11	-2	0.6%
CSCC[C@H](NC(=O)c1ccc2ccccc2c1)C(=O)N1CCC2(CC1)NCCc1[nH]cnc12	-17	-4.8	-0.7	48	-7	-0.5%
O=[N+]([O-])c1ccc(N2CCN(S(=O)(=O)c3ccccc3)CC2)cc1NCC1CCCO1 (stereo not given)	5	-0.7	-0.9	-3	8	-1.3%
COc1ccc(C2=C(N3CCN(c4cccc(C)c4)C(C)C3)c3ccccc3C2=O)cc1 (stereo not given)	nt	nt	0.1	26	nt	0.6%
CCC(C(=O)Nc1cc(C)ccc1OC)n1nnc(C(=O)OC)c1C(=O)OC (stereo not given)	nt	nt	-0.2	-9	nt	-0.6%
Cn1c(SCC(=O)NCc2cccs2)nnc1-c1ccc(S(=O)(=O)N2CCCC2)cc1	11	4.4	0.2	-3	2	?
COC(=O)c1nc(-c2ccccc2)oc1N(C)C	-7	-4.0	-0.6	6	-2	5.1%[38.3 µM]
C[C@H]1CN([C@@H](C)CO)C(=O)CCCn2nncc2CO[C@H]1CN(C)C(=O)C1CC1	7	-8.5	-0.4	4	5	0.3%
CN1C(=O)c2ccc(NC(=O)c3c(C(=O)O)cccc3[N+](=O)[O-])cc2C1=O	-1	-5.3	nt	nt	-14	1.9%

A different layout for some results above.
Values run as follows: CtBP-E1A inh | D2 agonist | TRPML1 agonist | TRPML1 blocker | Six1-Eya2 inh | PINK1 modulator
- Cc1ccc(C(=O)N2CC(C)CC(C)C2)cc1NC1=NC2CS(=O)(=O)CC2S1 (stereo not given)
→ 0 | -4.3 | 0.2 | 16 | 4 | 0.5%
- C/C(N)=C(/C#N)C(=O)COC(=O)c1cc(C)n(-c2ccc(F)cc2)c1C
→ -12&-25 | 4.5&-2.1 | -0.7&0.9 | 15&9 | -24&-13 | 4.0%&3.4%
- CCN(CC)c1ccc(S(=O)(=O)N2CCCCC2)cc1NC(=O)C1=COCCO1
→ -3 | -2.1 | 3.1 | 20 | -1 | -4.9%
- C1=C(CCNc2ncnc3nc[nH]c23)CCCC1
→ -1 | -1.2 | -1.0 | 1 | -8 | 1.6%
- O=C(c1cc2c(s1)CCCC2)N1CCN(S(=O)(=O)c2ccccc2C(F)(F)F)CC1
→ -2 | 5.4 | 3.6 | 10 | -5 | 1.6%
- O=C(Nc1ccc(OCc2cc(=O)n3ccsc3n2)cc1)c1ccc(F)cc1
→ nt | nt | -0.3 | -10 | nt | 2.7%
- CC1(C(=O)NS(=O)(=O)c2cccc(F)c2)CCN1C(=O)c1cccc2ccccc12 (stereo not given)
→ 5 | -2.2 | -0.9 | nt | 2 | 0.2%
- CCN1C(=O)[C@H]2[C@@H](c3ccc(-c4cccc(Cl)c4)cc3)N[C@@](C)(C(=O)OC)[C@H]2C1=O
→ -2 | 2.4 | 0.3 | -11 | -2 | 0.6%
- CSCC[C@H](NC(=O)c1ccc2ccccc2c1)C(=O)N1CCC2(CC1)NCCc1[nH]cnc12
→ -17 | -4.8 | -0.7 | 48 | -7 | -0.5%

The list goes on:
SMILES	CtBP-E1A inh	D2 agonist	TRPML1 agonist	TRPML1 blocker	Six1-Eya2 inh	PINK1 modulator
CCN(CC(=O)NCc1ccc(F)cc1)Cc1nc2ccccc2c(=O)[nH]1	-1	-1.5	2.0	-17	-3	-1.5%
CCc1nnc(NS(=O)(=O)c2ccc(NC(=O)c3ccc(C#N)cc3)cc2)s1	-18	-1.9	0.2	39	0	1.3%
Fc1cccc(-c2cc3nc4c(c(NCc5ccco5)n3n2)CCCC4)c1	3	-1.5	0.4	-1	-8	nt
O=c1cc(CSc2nc3cc(Cl)ccc3o2)nc2sccn12	2	-3.4	0.0	-7	-10	3.5%
CCOC(=O)C1=C(c2ccccc2)NC(=S)NC1c1ccc(Cl)cc1 (stereo not given)	-12	-4.1	1.8	-13	-10	-0.2%
CS(=O)(=O)Nc1ccc(C(=O)Nc2ccccc2C(=O)NCc2ccco2)cc1	0	-9.9	0.8	62	0	1.2%
Cc1cccc(C2c3[nH]c4ccccc4c3CCN2C(=O)c2cc(-c3cccn3C)n[nH]2)n1 (stereo not given)	?	0.7	0.6	24	?	-0.4%
CC12CCC(c3c1nc1ccccc1[n+]3[O-])C2(C)C (stereo not given)	0	-3.0	0.1	-5	2	0.8%
CCCc1cc(=O)[nH]c(SCC(=O)NC2CC2)n1	-10	-1.4	2.2	8	6	2.0%
COc1ccc(CC(=O)Oc2ccc(Br)cc2F)cc1S(=O)(=O)N1CCOCC1	-7	-2.1	-0.8	6	-22	5.5%
COc1ccc(NC(=S)NC(=O)c2ccccc2)cn1	-2	-1.5	0.4	4	-7	1.8%
COc1ccc(NC(=O)C(=O)N/N=C(\C)CC(=O)Nc2cc(C)ccn2)c(OC)c1	1	-2.1	0.4	2	?	-2.1%
COc1cc(/C=N/Nc2ccc(Cl)c(C(=O)O)c2)ccc1OC(=O)c1ccccc1F	-26	4.2	2.1	29	-21	0.3%
COCCNC(=O)C(c1ccccc1F)N(C(=O)C(=O)NC1CCCC1)C1CCCCC1 (stereo not given)	7	-3.9	0.7	-6	15	1.1%
CCOC(=O)c1sc2nc(C)cc(C)c2c1NC(=O)c1ccco1	6	1.4	-0.7	7	5	0.1%
CCc1ccc(NC(=O)C(=O)N/N=C(\C)CC(=O)Nc2ccc(OC)cc2)cc1	nt	-5.7	0.7	22	5	0.7%
CC12CCC(C(=O)N(c3ccc(Cl)cc3)C1=O)C2(C)C (stereo not given)	8	-4.5	-0.5	-2	16	-0.7%
CC(=O)C(Sc1ccc2nnc(-c3ccc(F)cc3)n2n1)C(C)=O	3	-3.9	-1.1	3	-3	1.8%
Cc1n[nH]c(=O)nc1NCc1ccccc1Cl	0	0.4	-0.5	27	9	2.6%
CCN1C(=O)[C@@H]2[C@@H](c3ccc(-c4ccc(C(C)=O)cc4)cc3)N3CCC[C@@]3(C(=O)OC)[C@@H]2C1=O	0	-0.9	-0.5	24	1	0.8%
O=C(CN1CCOCC1)Nc1ccc(Oc2ccccc2)cc1	4	0.7	-0.4	-2	3	-1.6%
CCn1nc(C)cc1C(=O)N1CCCC(Nc2ccc(F)c(F)c2)C1 (stereo not given)	0	1.5	0.0	-2	-3	0.0%
COc1ccccc1-c1cnc(C(O)c2ccc(CN3CCCCC3)cc2)[nH]1 (stereo not given)	-1	-5.5	-0.4	nt	-10	0.5%
S=C(Nc1ccc(Nc2ccccc2)cc1)N1CCN(c2ncccn2)CC1	0	-4.3	0.0	-9	-1	-0.2%
NC(=O)C1(N2CCCCC2)CCN(C(=O)c2cccn3c(=O)c4cc(Cl)ccc4nc23)CC1	-19	-2.5	0.1	2	0	2.6%
COc1ccc(Cc2nnc(SCC(=O)Nc3ccc(N4CCOCC4)cc3)n2C)cc1	-16	-2.4	0.3	26	-1	4.0%
S=C(N/N=C/c1ccc2ncccc2c1)Nc1ccccc1	nt	0.2	2.1	13	-12	-1.9%
O=C(COC(=O)Cc1ccc(Br)cc1)NC1CCCC1	-3	-1.8	1.0	-5	3	2.7%
Cc1c(Cc2ccc3c(c2)OCO3)sc(NC(=O)c2ccc3ccccc3c2)c1C(N)=O	-7	-6.1	-0.3	18	6	5.6%
O=C(Nc1nc(-c2ccccc2)cs1)c1ccc(S(=O)(=O)N2CCc3ccccc32)cc1	-2	-1.9	-0.7	4	-11	7.4%
NS(=O)(=O)c1ccc(NC(=S)N2CCN(c3ccccc3)CC2)cc1	-3	1.7	0.9	8	2	-0.2%
O=S(=O)(c1ccccc1C(F)(F)F)N1CCN(S(=O)(=O)c2ccccc2C(F)(F)F)CC1	5	1.7	-0.2	4	3	?
Cc1cc(C)cc(NS(=O)(=O)c2ccc3[nH]cc(C(=O)N(C)Cc4ccccc4)c(=O)c3c2)c1	nt	nt	5.1	-28	nt	5.1%
Cc1ccccc1C(=O)c1cccn1CC(=O)NCC1CCCO1 (stereo not given)	4	-2.4	-0.1	8	-4	0.7%
Cc1cc(=O)n2nc(N3CCC(C(=O)Nc4c(F)c(F)c(F)c(F)c4F)CC3)sc2n1	?	-0.8	-0.5	-10	-23	0.7%
